Screens from PubChem.
Mtb H37Rv: M. tuberculosis H37Rv growth inhibitors, H37Rv strain (AID 1626) | M. tuberculosis H37Rv growth inhibition; higher % means a stronger effect | one-dose inhibition, % at 10 µM; IC50 in µM for titrated hits | 220,000 compounds, 0.95% hits;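 active = confirmed in a dose series; inconclusive = inhibition above 80% but not taken into the dose series; inactive = below 80% or under 30% at every dose of the series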;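 note: bacteria incubated seven days before Alamar blue readout; 0% = bacteria only wells and 100% = bacteria with antibiotic wells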
YopH PTP inh: blocks Yersinia enterocolitica YopH tyrosine phosphatase; fluorescence Ex485/Em525; 140,000 compounds, 0.16% hits; inhibition, %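 (about 10 µM by stock and volumes)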; AID 898;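 active = inhibition of 50% or more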;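 note: controls were vehicle for no effect and minimum signal wells for full effect; inactives centre near -20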
Arbovirus inh: arbovirus infection inhibition; AID 1251; arbovirus infection cell-based antiviral screen; inhibition, % at 10 µM; 200,000 compounds, 0.37% hits;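 active = inhibition from about 30%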;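 note: bluetongue infection of BSR cells; cell survival read as ATP light after 72 h; 0% = infected wells without compound and 100% = uninfected wells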
RecA intein inh: inhibitors of M. tuberculosis RecA intein splicing. P9WHJ3. cell-free RecA intein splicing, fluorescence. inhibition, %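 (about 9 µM by stock and volumes)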. 290,000 compounds, 0.75% hits; in the data active = inhibition above about 30%; inconclusive = no clear call, values can overlap the other calls;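 note: 0% = vehicle wells and 100% = reference inhibitor control wells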
Target sequence (P9WHJ3 whole entry, looked up): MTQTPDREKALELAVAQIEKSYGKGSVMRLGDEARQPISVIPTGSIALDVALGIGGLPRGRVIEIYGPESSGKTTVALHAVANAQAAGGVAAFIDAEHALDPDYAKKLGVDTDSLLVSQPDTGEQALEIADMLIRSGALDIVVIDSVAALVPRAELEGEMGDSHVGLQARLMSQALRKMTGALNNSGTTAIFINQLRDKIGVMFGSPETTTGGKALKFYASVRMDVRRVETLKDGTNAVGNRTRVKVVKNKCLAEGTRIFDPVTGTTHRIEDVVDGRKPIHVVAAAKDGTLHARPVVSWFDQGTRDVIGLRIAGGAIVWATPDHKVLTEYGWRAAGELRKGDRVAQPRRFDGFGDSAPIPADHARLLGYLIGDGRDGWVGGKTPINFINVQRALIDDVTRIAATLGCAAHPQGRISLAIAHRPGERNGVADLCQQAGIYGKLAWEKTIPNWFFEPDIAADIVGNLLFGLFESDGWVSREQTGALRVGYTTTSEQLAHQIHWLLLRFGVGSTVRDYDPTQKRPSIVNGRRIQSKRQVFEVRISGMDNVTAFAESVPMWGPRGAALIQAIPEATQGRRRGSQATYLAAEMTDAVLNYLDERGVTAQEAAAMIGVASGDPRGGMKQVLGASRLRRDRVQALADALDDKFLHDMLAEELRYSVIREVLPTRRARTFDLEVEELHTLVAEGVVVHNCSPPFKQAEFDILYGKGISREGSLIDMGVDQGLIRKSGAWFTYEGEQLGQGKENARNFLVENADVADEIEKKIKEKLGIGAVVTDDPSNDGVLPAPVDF
Mtb bLac sens: beta-lactam sensitization of Mtb H37Rv; M. tuberculosis H37Rv growth with meropenem, percent inhibition; hits of this screen are not shown here; inhibition, % at 25 µM; 330,000 compounds, 0.27% hits;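 active = about 74% or more and at least 40 points above the plate without the antibiotic, then above 30% in a dose series; inconclusive = first-round hits that could not be retested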;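 note: growth measured after seven days incubation then overnight dye step; 0% = bacteria only wells and 100% = bacteria with antibiotic; twin plates without the antibiotic show which effects depend on it; some results filed as inactive read as strong as hits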
Arbovirus inh repeat: second read-out of Arbovirus inh, no call of its own (marks repeat the call); inhibition, %; measured here: 10K subset replicate screen; many hits read low in the repeat;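 first of two repeat runs on a subset; 0% = infected and 100% = uninfected wells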
Numbers without * were called inactive; ? = inconclusive; · = not tested or not shown. A portion of the library. The share of hits here may be higher or lower than overall.

The opening 13 entries as a preview:
SMILES | Mtb H37Rv | YopH PTP inh | Arbovirus inh | RecA intein inh | Mtb bLac sens | others
COc1ccc(CNC(=O)C2CCC(=O)N2C(C)C)c(OC)c1 (centres undefined) | -5% | · | · | -0.2 | 3
Cc1cccc(-c2nsc(SCC(=O)Nc3cc(C)on3)n2)c1 | 71% | -39 | -12 | 0.9 | 96
C/C(=N\Nc1nc(N)cc(Cl)n1)c1cccc(N)c1 | 1% | -26 | 1 | -9.7 | -3
Cc1ccc(C(=O)OCC(=O)N2CCOCC2)c(C)c1 | · | · | · | 0.8 | 0
Cc1cc(C)c2c(-n3cccc3)c(C(=O)NNS(=O)(=O)c3ccc(Br)cc3)sc2n1 | -9% | -35 | -3 | -7.2 | 3
C#CCn1c(=NC(=O)CN2C(=O)CCC2=O)sc2cccc(OC)c21 | 5% | · | · | -1.8 | -6
CN1CCN(CCCOc2ccc(-c3ccccc3)cc2)CC1 | · | · | · | -0.8 | 6
CCOc1ccc(C)cc1S(=O)(=O)N1CCCCC1 | -8% | -27 | 1 | -13 | -6
CCOC(=O)C1C(=O)NC(SCC(=O)Nc2nccs2)=C(C#N)C1c1ccccc1OCC (centres undefined) | 2% | -53 | 12 | · | 25
CCOc1ccccc1NC(=O)C1CCCN(S(=O)(=O)c2ccc(OC)c(C)c2)C1 (centres undefined) | -3% | -14 | -8 | 0.1 | -7
COC1CC(OC2CCC3(C)C(CCC4C3CCC3(C)C(C5=CC(=O)OC5)C(OC(C)=O)CC43O)C2)OC(C)C1OC1OC(COC2OC(CO)C(O)C(O)C2O)C(O)C(O)C1O (centres undefined) | -4% | · | · | 0.1 | -10
NS(=O)(=O)c1ccc(Nc2nc(-c3ccc(O)cc3)cs2)cc1 | 14% | -8 | 5 | 2.4 | -1
CCc1ccc(OCCNC(=O)c2cc(SC)ccc2Cl)cc1 | · | 0 | 13 | 0.6 | 1

This part in full (from the top)
SMILES | Mtb H37Rv | YopH PTP inh | Arbovirus inh | RecA intein inh | Mtb bLac sens | others
COc1ccc(CNC(=O)C2CCC(=O)N2C(C)C)c(OC)c1 (centres undefined) | -5% | · | · | -0.2 | 3
Cc1cccc(-c2nsc(SCC(=O)Nc3cc(C)on3)n2)c1 | 71% | -39 | -12 | 0.9 | 96
C/C(=N\Nc1nc(N)cc(Cl)n1)c1cccc(N)c1 | 1% | -26 | 1 | -9.7 | -3
Cc1ccc(C(=O)OCC(=O)N2CCOCC2)c(C)c1 | · | · | · | 0.8 | 0
Cc1cc(C)c2c(-n3cccc3)c(C(=O)NNS(=O)(=O)c3ccc(Br)cc3)sc2n1 | -9% | -35 | -3 | -7.2 | 3
C#CCn1c(=NC(=O)CN2C(=O)CCC2=O)sc2cccc(OC)c21 | 5% | · | · | -1.8 | -6
CN1CCN(CCCOc2ccc(-c3ccccc3)cc2)CC1 | · | · | · | -0.8 | 6
CCOc1ccc(C)cc1S(=O)(=O)N1CCCCC1 | -8% | -27 | 1 | -13 | -6
CCOC(=O)C1C(=O)NC(SCC(=O)Nc2nccs2)=C(C#N)C1c1ccccc1OCC (centres undefined) | 2% | -53 | 12 | · | 25
CCOc1ccccc1NC(=O)C1CCCN(S(=O)(=O)c2ccc(OC)c(C)c2)C1 (centres undefined) | -3% | -14 | -8 | 0.1 | -7
COC1CC(OC2CCC3(C)C(CCC4C3CCC3(C)C(C5=CC(=O)OC5)C(OC(C)=O)CC43O)C2)OC(C)C1OC1OC(COC2OC(CO)C(O)C(O)C2O)C(O)C(O)C1O (centres undefined) | -4% | · | · | 0.1 | -10
NS(=O)(=O)c1ccc(Nc2nc(-c3ccc(O)cc3)cs2)cc1 | 14% | -8 | 5 | 2.4 | -1
CCc1ccc(OCCNC(=O)c2cc(SC)ccc2Cl)cc1 | · | 0 | 13 | 0.6 | 1
O=C(NNC(=O)C12CC3CC(CC(C3)C1)C2)c1cccc(O)c1 | · | · | · | -0.2 | 2
COc1ccccc1OCc1cc(-c2ccccc2)no1 | 3% | · | -3 | 0.8 | 4
C=CCNc1nc(Cl)nc(Nc2ccc(OC)cc2OC)n1 | -5% | · | -3 | 3.1 | 1
CC1=CC(C)(C)n2c(O)c(N=NC(N)=S)c3c(C)ccc1c32 | ? | -18 | -2 | 0.2 | 4
Cc1ccc(Sc2ccc(N)cc2C#N)cc1 | 6% | -4 | · | · | -9
Cc1ccc2c(N)[nH]nc2n1 | -8% | · | -1 | 2.4 | 0
Cc1cccc(NS(=O)(=O)c2cccc([N+](=O)[O-])c2)n1 | 5% | · | 4 | -0.2 | -3
COc1ccc(-c2c(C(F)(F)F)nn(C)c2NC(C)=O)cc1 | -5% | · | · | -4.7 | -13
CCc1cccc(C)c1NC(=O)Cc1ccsc1 | · | · | · | 1.2 | 1
CCc1ccc(-n2c(C)cc(/C=N/NC(=O)c3ccncc3)c2C)cc1 | ? | · | 0 | 5.6 | 99
CCCCCn1c(Br)nc2c1c(=O)n(CC(N)=O)c(=O)n2C | -3% | -26 | 0 | -0.2 | ?
CCCCNC(=O)/C(C#N)=C/c1ccc(F)cc1F | -3% | · | -5 | 5.7 | 1
CCCn1c2c(c(=N)c3c1CCC3)CCC2 | · | · | · | 0.4 | -3
O=C(CCNS(=O)(=O)c1ccc(Br)s1)NCc1ccc2c(c1)OCO2 | -2% | · | -11 | 1.4 | -3
C/C(=N/NC(=O)CNc1ccc(C)cc1)c1ccc(Cl)cc1 | -2% | -26 | 4 | 2.3 | -2
CCCC(=O)Nc1nnc(/C=C/c2ccccc2)s1 | · | · | · | -2.3 | 4
Cc1ccc(N=C2N=C(N)c3ccccc32)c(C)c1 | -1% | -1 | 11 | -1.8 | -6
Cc1cc2nc3ccc(=[N+](C)C)cc-3sc2cc1N | 60% | · | · | 31* | ·
C/C(=N/NC(=O)c1ccc(-c2ccccc2)cc1)c1cc(O)cc(O)c1 | · | · | · | 5.4 | 96
Cc1ccc(NCC(O)C(O)C(O)CO)c(N=Nc2ccccc2)c1C (centres undefined) | 17% | · | · | -1.4 | 6
C#CCOc1c(Br)cc(/C=C2/C(=O)ON=C2C)cc1OC | · | · | · | 2.1 | -9
COc1ccc(OC)c(CCNC(=O)CS(=O)(=O)Cc2nc(-c3ccc(C)cc3)oc2C)c1 | -4% | -22 | 20 | 0.6 | -7
O=C(Nc1ccccc1)N(C1=NCCC1)c1ccccc1 | -4% | · | · | 2.3 | 57
S=C(NCCc1ccccc1)Nc1ccccc1Cl | 0% | -7 | -1 | 0.1 | -3
CCOC(=O)N1CCN(C(=O)c2ccccc2N(Cc2ccccc2)S(=O)(=O)c2ccccc2)CC1 | · | · | · | 4.3 | -7
CCN(NC(=O)C(O)(c1ccc(F)cc1)c1ccc(F)cc1)C(=O)c1ccccc1 | 15% | -14 | 5 | -2.3 | 5
COc1ccc(C(CNC(=O)Cc2ccc(Cl)c(Cl)c2)N2CCCCC2)cc1 (centres undefined) | · | · | · | 5.9 | ?
CCC(C(=O)Nc1ccc(Cl)cc1)N1CCCC1=O (centres undefined) | · | · | · | 2.2 | 1
COc1nc(NS(=O)(=O)c2ccc(C)cc2)nc(C)c1Cl | 9% | -33 | 11 | -2.9 | -3
C(=C\c1ccccc1)/C=N/n1cnnc1 | -11% | -38 | 1 | -0.6 | 2
COC(=O)c1ccc(N2CCN(S(=O)(=O)c3ccc(Br)cc3)CC2)c([N+](=O)[O-])c1 | 4% | -30 | 16 | -0.3 | 6
O=C(CN(C(=O)CCNC(=O)c1ccco1)c1ccccc1)NC1CCCC1 | -9% | -58 | 7 | 0.9 | -5
COc1ccc(Cl)cc1NC(=O)CSc1nnc(Cn2c(=O)sc3ccccc32)n1C | -2% | -26 | 3 | · | 5 | Arbovirus inh repeat=-5
Cc1cc(C)c(C#N)c(SCC(=O)Nc2ccccc2)n1 | -18% | · | 0 | -2.3 | -7
O=C(NCCO)c1ccc(CSc2nc3ccccc3[nH]2)cc1 | 0% | -27 | -1 | -4.0 | -5
CCNC(=O)CC(=O)Nc1ccccc1C(=O)O | -5% | -28 | 9 | 2.6 | -6
COC(=O)c1cc(Br)c(=O)n(Cc2ccc3c(c2)OCO3)c1 | 4% | -43 | -13 | -0.8 | -12
COC(=O)c1ccc(COc2ccc(-c3nnn(CC(N)=O)n3)cc2)cc1 | -1% | · | 3 | -3.0 | -5
CCCCN(C(=O)c1ccc(C)c(S(=O)(=O)N2CCOCC2)c1)c1c(N)n(CC(C)C)c(=O)[nH]c1=O | · | · | · | -3.8 | -11
COc1ccc(S(=O)(=O)NC(C)C(=O)NCC2CCCO2)cc1OC (centres undefined) | · | · | · | 0.2 | 1
O=C(CSc1ncn(-c2ccccc2)n1)Nc1nccs1 | -7% | -25 | 3 | -1.5 | 4
Cc1ccccc1OCC(=O)NN1C(=O)C2C3C=CC(O3)C2C1=O (centres undefined) | 2% | · | 4 | -1.5 | -3
Cn1nc(C(C)(C)C)cc1NC(=O)Nc1cc(Cl)cc(Cl)c1 | ? | · | · | 11 | 99
COc1cc(-n2c(=O)c3ccccc3n(Cc3cccnc3)c2=O)cc(OC)c1OC | 0% | -3 | · | -1.4 | -2
Cc1ccc(-c2nn(-c3ccccc3)cc2/C=N/O)cc1 | · | · | · | -0.7 | 95
COc1cc(NC(=O)c2ccccc2)c(OC)cc1Cl | 10% | -15 | -4 | 2.8 | 34
COCCNC(=O)CCCC(=O)NCCOC | 1% | 8 | 3 | -0.5 | -1
Later entries.
SMILES | Mtb H37Rv | YopH PTP inh | Arbovirus inh | RecA intein inh | Mtb bLac sens | others
COc1ccc(/C=N/NC(=O)Cc2cc(OC)c(OC)cc2[N+](=O)[O-])cc1 | -7% | -17 | 3 | -2.7 | 6
COC(=O)C1=C(C)N(C)C(=S)NC1c1ccccc1 (centres undefined) | 5% | -16 | -5 | -2.1 | -4
COc1ccc(N(C)C(=O)c2cc3c(s2)-c2ccccc2OC3)c(OC)c1 | · | · | · | 12 | ?
COc1cc([N+](=O)[O-])cc(/C=N/NC(=O)Cn2cncn2)c1O | -1% | · | · | 7.5 | -1
O=C(COC(=O)[C@H](Cc1ccccc1)NC(=O)c1cccs1)Nc1c(Cl)cccc1Cl | -2% | -11 | -2 | 3.2 | 5
Cc1cccc(N2CCN(C(=O)C(C)C)CC2)c1C | 7% | 6 | 2 | -1.7 | 2
COc1nc(N)c(S(=O)(=O)c2ccccc2)cc1C#N | -2% | -48 | 10 | -2.9 | -1
CNC(=O)C1CCN(S(=O)(=O)c2c(C)noc2/C=C/c2ccc(C)cc2)CC1 | · | · | · | 0.2 | -8
COc1ccc(Cl)c(Cn2c(NCC(C)O)nc3c2c(=O)n(C)c(=O)n3C)c1 (centres undefined) | 5% | -27 | 9 | -1.0 | 1
CCCS(=O)(=O)N1CCN(c2ccccc2F)CC1 | 0% | -23 | 12 | -1.5 | -15
Cc1[nH]c(=O)c(C#N)c2c1CSC(C)(C)C2 | -3% | 13 | 0 | 1.6 | 5
COCCNC(=O)c1ccccc1NC(=O)c1ccccc1SC | -5% | · | 1 | 0.1 | -1
Cc1ccc(Oc2nc3ccccc3n3cccc23)cc1 | 13% | -31 | 7 | 2.1 | 3
O=C(N/N=C/c1ccc2cccc(OCc3ccccc3)c2n1)c1ccc(Cl)cc1 | 7% | -11 | -3 | 6.3 | -2
O=C(Nc1cccc2nsnc12)C1CC(=O)N(c2ccccc2)C1 (centres undefined) | 1% | -31 | -9 | -9.9 | -5
CC(Oc1ccc2c(-c3ccccc3)cc(=O)oc2c1)C(=O)N[C@H](Cc1c[nH]c2ccccc12)C(=O)O (some centres undefined) | · | · | · | 0.6 | -5
Cc1ccc(-c2csc(=Nc3cccnc3)n2CCCn2ccnc2)cc1C | 47% | -29 | 0 | 14 | 79
CC(=O)C1=C(C)NC(SCC(=O)c2ccc(-c3ccccc3)cc2)=C(C#N)C1c1cccnc1 (centres undefined) | ? | 4 | -5 | · | 84
CCOCCn1c(CN2CCOCC2)nc2c1c(=O)[nH]c(=O)n2C | -7% | -34 | 7 | 0.2 | 6
CCn1c(NN)nc2sc3c(c2c1=O)CCC3 | -8% | -12 | -8 | · | 8
CCOC(=O)C(=CN=C(N)Nc1nc2ccccc2o1)C(=O)OCC | ? | · | -2 | 6.7 | 85
COC(=O)C(NS(=O)(=O)c1ccc(C)cc1)c1ccccc1 (centres undefined) | · | · | 6 | 0.8 | 74
O=C(N/N=C/C=C/c1ccccc1)C(O)c1ccccc1 (centres undefined) | 3% | -20 | · | 1.2 | -2
Cc1ccccc1N1C(=O)NC(=O)/C(=C\c2cc(Br)c(N3CCOCC3)o2)C1=O | -1% | -27 | 2 | 4.7 | -3
COCCN(CCOC)S(=O)(=O)c1ccc(C(=O)Nc2nnc(C)o2)cc1 | -2% | -17 | 1 | -0.4 | -3
